Screens: PubChem, National Center for Advancing Translational Sciences (NCATS)
HPGD inh – HPGD (human) dehydrogenase inhibition | P15428 | purified HPGD, NADH fluorescence kinetic, PGE2 substrate | Potency, µM, without a hit: top-dose activity change, negative = inhibition, actives largely listed as inhibitors | actives 4.3% (n = 150,000); active = well fitted inhibition curve with a large enough effect (not every such curve was filed as active); inconclusive = small, poorly fitted or top-dose-only effect, or another doubt; inactive = no such curve, though single readings can be large or run the other way;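 also: top concentration of the series not given in the record; plate controls included wells without enzyme; inactives centre near -10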
Target sequence (P15428 whole entry, looked up): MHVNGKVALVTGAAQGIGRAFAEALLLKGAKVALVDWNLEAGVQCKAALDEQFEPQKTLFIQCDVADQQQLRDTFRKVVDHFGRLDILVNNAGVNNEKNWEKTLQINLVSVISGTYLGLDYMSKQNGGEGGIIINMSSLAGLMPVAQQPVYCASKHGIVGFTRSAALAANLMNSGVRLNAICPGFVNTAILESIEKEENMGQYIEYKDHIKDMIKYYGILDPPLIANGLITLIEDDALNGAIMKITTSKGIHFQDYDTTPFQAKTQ
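20 nM HPGD preincubated 15 min at room temperature with compound in 50 mM Tris-HCl pH 8, 0.01% Tween 20. Started with 1 mM NAD+ and 30 uM prostaglandin E2; NADH fluorescence (360/450 nm) read 5 times over 30-s intervals, last minus first.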
Starred values were filed as active, the others as inactive; ? = inconclusive; & = joins results of further samples. % is scaled to controls: 0 for no effect and ±100 for the full control effect; potency is read from the fitted curve at half-maximal effect. This is a subset (hit frequency here may not be typical).

compound,HPGD inh
Cc1ccc(Nc2ccc(-n3ccnc3)nn2)cc1C,-12%
Cc1cccnc1NC(=S)NC(=O)c1cncc(Br)c1,-8%
COc1ccc(/C=N/NC(=S)Nc2ccccc2)cc1COc1ccc(F)cc1,-29%
Cc1cccc(C(CC(=O)N2CCCC2)c2ccccc2)c1O (centres undefined),11µM*
COCCn1nnnc1CN1CCOCC1,-8%
O=C(O)c1ccc(NC2=C(N3CCOCC3)C(=O)c3ccccc3C2=O)cc1,-12%
C/C(=N/NC(=O)OC(C)(C)C)c1ccco1,-15%
COc1cc(CCC(=O)Nc2cccc(S(=O)(=O)N(C)C)c2)cc(OC)c1OC,-1%
O=C(CSc1ncc(-c2ccc(F)cc2)[nH]1)NCc1ccco1,-10%
CCc1nnc(NC(=O)C2CCCN2S(=O)(=O)c2ccc(C)cc2)s1 (centres undefined),-3%
CCOC(=O)N1CCC(N2CCN(S(=O)(=O)c3ccc(Cl)cc3)CC2)CC1,-13%
N[C@H](C(=O)O)c1ccc(O)c(C(=O)O)c1,?
Cc1ccc(OCc2nnc(SCC(=O)Nc3cc(C)on3)n2C)cc1,-4%
O=c1c(O)c(-c2ccc(O)c(O)c2)oc2ccccc12,-16%
Cc1cc(C)nc(SCCN2CCOCC2)n1,-6%
Cn1c(=O)c2c(nc(Oc3ccccc3)n2C)n(C)c1=O,-7%
O=[N+]([O-])c1cccnc1N1CCC(c2cc(-c3ccc(Cl)cc3)n[nH]2)CC1,-22%
Cc1cc(NC2CCCCC2)nc(NCc2ccccc2)n1,-9%
CCOC(=O)CN(C(=O)CSc1nnc(CNc2ccc(C)cc2C)n1CC)c1ccccc1,-10%
CCOc1nc(NC(=O)NS(=O)(=O)c2cccc(Cl)c2)nc(-c2ccccc2)n1,-1%

In the list so far, these have a COOH group:
compound,HPGD inh
O=C(O)c1ccc(NC2=C(N3CCOCC3)C(=O)c3ccccc3C2=O)cc1,-12%
N[C@H](C(=O)O)c1ccc(O)c(C(=O)O)c1,?

Following part.
compound,HPGD inh
COc1ccc(NS(=O)(=O)c2ccc3nc(COc4cccc5ccccc45)[nH]c3c2)cc1,35µM*
O=C1NCC(O)=C1C=NC12CC3CC(CC(C3)C1)C2,-9%&-11%
Clc1ncccc1-c1nc2ccccc2n1Cc1ccccc1,-15%
O=c1cc(CO)occ1O,-2%
O=C1OC(=O)C2C3CCC(O3)C12 (centres undefined),-6%&-5%&-1%
Cc1cccc(NC(=O)C2c3ccccc3C(=O)N3CCc4ccccc4C23)n1 (centres undefined),-6%
CCOC(=O)CN1C(=O)C(O)=C(C(C)=O)C1c1ccc([N+](=O)[O-])cc1 (centres undefined),-26%
Cc1cc(=O)c2ccccc2s1,-21%
CCS(=O)(=O)c1ccc(O)c(NC(=O)COc2ccc(OC)cc2)c1,-7%
COC(=O)C1=C(C)NC(=O)/C1=C\c1cc(C)n(-c2cccc(C)c2)c1C,-6%
O=C(CSc1nnc(-c2ccco2)o1)N1c2ccccc2CCc2ccccc21,-8%
CC(C)C[C@@H](CC(=O)N[C@H](CC(=O)N[C@@H]1CCCC[C@H]1C(=O)N[C@H](CC(=O)N[C@@H](CCC(=O)O)CC(=O)O)CC(C)C)C(C)C)NC(=O)[C@@H]1CCCC[C@H]1N,-3%
COC(=O)c1ccc2c(c1)NC(=O)C(N1CCOCC1)S2 (centres undefined),-8%
O=C(COC(=O)/C=C/c1ccccc1)NCCC1=CCCCC1,-13%
C=CCOc1ccc(NC(=O)C2CC(=O)N(C(C)C)C2)cc1 (centres undefined),-13%
CCCC(C)C(=O)Nc1nc(C)c(-c2csc(Nc3cc(OC)ccc3OC)n2)s1 (centres undefined),-22%
CC1=C(C(=O)Nc2ccc(F)cc2)C(c2ccncc2)C2=C(CCCC2=O)N1 (centres undefined),?
O=C(Nc1ccncc1)Nc1ccccn1,-1%
COCCn1c(=O)c(-c2cn(C)c3ccccc23)nc2cncnc21,-11%
Cc1c(NS(=O)(=O)c2ccc3c(c2)c(=O)n(C)c(=O)n3C)c(=O)n(-c2ccccc2)n1C,-5%
CC1CCCN(C(=O)c2ccc3c(c2)C(=O)N(CCC2=CCCCC2)C3=O)C1 (centres undefined),0.89µM*
COc1ccc(C2=CSC3=C(C(=O)c4cccc(S(=O)(=O)N(C)C)c4)CCN23)cc1,-17%
COc1cccc(S(=O)(=O)Nc2ccc(C(=O)N3CCOCC3)cc2)c1,-11%
COc1cccc(N/C(SCc2ccccc2F)=C(/C#N)C(=O)NCc2cccs2)c1,-27%
Cc1cc(NC(=O)CSc2nnc(C(C)N(C)C)n2Cc2ccccc2)no1 (centres undefined),-5%
COc1ccc(/C=N/NC(=O)CCn2cnc(-c3ccccc3)c2-c2ccccc2)cc1,-5%
Cc1ccc(OCC(=O)N/N=C\c2ccncc2)c(C)c1,-12%
Cc1nnc(NC(=O)c2cc3n(n2)C(C(F)(F)F)CC(C2CC2)N3)s1 (centres undefined),0%
CCCCN1CCCCC1C(=O)Nc1c(C)cc(C)cc1C (centres undefined),-6%
CC(C)OC(=O)c1nnc(Cc2ccc(Cl)cc2)o1,-15%
Cc1oc(-c2ccc(Cl)cc2)nc1CN1CCCC(C(=O)NCc2ccco2)C1 (centres undefined),-26%
COc1cc(NC(=O)Cc2nn(C)c(=O)c3ccccc23)cc(OC)c1OC,-6%
COC(=O)Cc1ccc2c3ccccc3n(C)c2c1,?
S=c1[nH]nc(COc2ccccc2)n1C1CCCCC1,22µM*
COc1ccc(S(=O)(=O)Nc2c(C(=O)O)[nH]c3ccccc23)cc1OC,-12%
O=C(CSc1ccc(Cl)cc1)Nc1ccc(N2CCN(C(=O)c3ccc(Cl)cc3)CC2)cc1,-6%
O=C(NCCc1ccccc1)c1c(O)c2cccc3c2n(c1=O)CC3,-21%
Cc1ccc(-c2nnc(SCC(=O)Nc3ccc(N4CCOCC4)cc3)o2)cc1,-6%
CCOC(=O)c1ccc(N2Cc3ccccc3C2=N)cc1,-12%
O=C(NNC(=S)NC(=O)c1cccs1)c1ccc(NC(=O)c2ccccc2)cc1,-15%
O=C(NCCc1ccccc1)C1CCN(S(=O)(=O)c2cccs2)CC1,-3%
COc1ccc(CCNC(=O)Cn2c(=O)n(Cc3ccco3)c(=O)c3ccc(Cl)cc32)cc1OC,-11%
CC(=C1C(=O)c2ccccc2C1=O)N1CCN(C/C=C/c2ccccc2)CC1,-7%
COc1ccc(NC(=O)N(CCCN(C)C)Cc2cc3cc(OC)ccc3[nH]c2=O)cc1,?
O=S(=O)(NC1CCCCCC1)c1ccc(Br)s1,-6%
COc1cc(SC#N)ccc1N=Cc1c(C)[nH]n(-c2cccc3ccccc23)c1=O,?
CC(C)N1CCN(c2ccc(OC[C@@H]3CO[C@@](Cn4cncn4)(c4ccc(Cl)cc4Cl)O3)cc2)CC1,-4%
Cc1ccc(NC(=O)CC2S/C(=N/N=C/c3c[nH]c4ccccc34)NC2=O)cc1 (centres undefined),?
COc1ccc(N(C(C)=O)S(=O)(=O)c2cccs2)cc1,-1%
O=C1CN=C(Nc2ccccc2Cl)N1c1ccccc1,-14%
CCOc1ccc(NC(=O)CCN2CCN(S(=O)(=O)c3ccc(OC)cc3)CC2)cc1,-12%
CCC1S/C(=C(\C#N)C(N)=O)N(c2ccc(F)cc2)C1=O (centres undefined),-10%
Fc1ccc(N2N=C(c3cccs3)CC2c2ccco2)c(F)c1 (centres undefined),?
CCC(=O)N(Cc1ccc(C)cc1)Cc1cc2cc3c(cc2[nH]c1=O)OCO3,?
CC(C)(C)CC(C)(C)NCC(O)COCCOc1ccc(Br)cc1 (centres undefined),-6%
CC1CCCC(C)N1C(=O)Cn1c(SCC(=O)Nc2ccc3c(c2)OCO3)nc2ccccc21 (centres undefined),-15%
CCOC(=O)N1CCN(C(=O)CN(C2CCCCC2)S(=O)(=O)c2ccc(Cl)cc2)CC1,-6%
O=C(c1ccc2c(c1)OCO2)N(CC1CCCO1)C1(C(=O)NC2CCCCC2)CCCCC1 (centres undefined),-9%
CCOc1ccc(C(=O)Nc2cccc(-c3cc4ccccc4oc3=O)c2)cc1[N+](=O)[O-],-12%
O=C(CN1CCOCC1)NCCNC(=O)CN1CCOCC1,-7%

Printed as active in HPGD inh, of those listed so far:
compound,HPGD inh
Cc1cccc(C(CC(=O)N2CCCC2)c2ccccc2)c1O (centres undefined),11µM*
COc1ccc(NS(=O)(=O)c2ccc3nc(COc4cccc5ccccc45)[nH]c3c2)cc1,35µM*
CC1CCCN(C(=O)c2ccc3c(c2)C(=O)N(CCC2=CCCCC2)C3=O)C1 (centres undefined),0.89µM*
S=c1[nH]nc(COc2ccccc2)n1C1CCCCC1,22µM*

Additional compounds follow.
molecule	HPGD inh
CN(C)C(=O)N1CCN(C(=O)N(C)C)CC1	-9%
Cc1ccc(S(=O)(=O)Cc2ccc(C(=O)N3CCN(c4ccccn4)CC3)o2)cc1	-1%
CCNc1nc(NCC)n2c(SCC(=O)c3ccc(C(C)C)cc3)nnc2n1	-4%
Cc1ccsc1C(=O)N(c1nc2ccccc2s1)c1c(C)cccc1C	-23%
NCCc1nnc(SCC(N)=O)o1	-1%
O=Nc1c2nc3ccccc3n(O)c-2c2ccccc12	-25%
Cc1ccc(S(=O)(=O)Nc2cc(C(=O)O)ccc2N2CCCCC2)cc1	-10%
Cc1cccc(OCc2nnc(SCC(=O)N3c4ccccc4Sc4ccc(Cl)cc43)o2)c1	-7%
CCn1c(SCC(=O)N/N=C/c2cc(OC)c(OC)c(OC)c2)nc2ccccc21	-3%
CC1Cc2ccccc2N1C(=O)c1ccc2snnc2c1 (centres undefined)	-5%
Cc1ccc(OCCn2c(C3CC(=O)N(Cc4ccccc4)C3)nc3ccccc32)cc1 (centres undefined)	-6%
Cc1cccc(C(C)C)c1NC(=O)CSc1nncn1C	-3%
CCOc1cc(NC(=O)c2ccco2)c(OCC)cc1NC(=O)CCc1ccccc1OC	?
NC1(C(=O)OCc2ccccc2)CCCC1	-6%
CCc1cccc(CC)c1-n1c(SCc2cc(=O)n3ccsc3n2)nnc1-c1cccnc1	-1%
CC[C@]1(O)C[C@@H]2CN(CCc3c([nH]c4ccccc34)[C@](C(=O)OC)(c3cc4c(cc3OC)N(C)[C@H]3[C@](O)(C(=O)OC)[C@@H](C(=O)OC)[C@@]5(CC)C=CCN6CC[C@@]43[C@@H]65)C2)C1	-13%
COc1ccc(-c2[nH]ncc2-c2csc(C)n2)c(O)c1	-13%
O=C(CNCC1CCCO1)N1CCN(S(=O)(=O)c2ccc3ccccc3c2)CC1 (centres undefined)	2%
COc1ccc([C@H]2Sc3ccccc3N(CCN(C)C)C(=O)[C@H]2OC(C)=O)cc1	-3%
c1ccc(CC2CCN(c3nc4ccccc4n4cnnc34)CC2)cc1	?
COc1cc(NC(=O)CCCC(=O)OCC(F)(F)C(F)F)nc(OC)n1	-11%
CC1CCCCN1S(=O)(=O)c1coc(C(N)=O)c1 (centres undefined)	-9%
CCOc1ccc(/C=C(\C#N)C(=O)c2c(C)[nH]c3ccccc23)cc1OC	1%
COC(=O)C1=C(C)NC(C)=C(C(=O)OC)C1c1cc2ccc(C)cc2[nH]c1=O	-15%
CCOC(=O)c1ccc(NC(=O)CSc2nnc(C)n2-c2ccccc2)cc1	-7%
O=C1CCN(C(=O)Nc2ccccc2)N1	2%
Nc1nc2c(cnn2CCc2ccccc2)c2nc(-c3ccco3)nn12	?
Cc1noc(/C=C/N(C)C)c1S(=O)(=O)N1CCCC(C(=O)NCc2ccco2)C1 (centres undefined)	-17%
N#Cc1cc(-c2ccccc2)oc1/N=C/c1ccccc1O	?
S=c1[nH]nc(-c2ccccc2Cl)n1CC1CCCO1 (centres undefined)	-27%

Arranged by value in HPGD inh (largest number first): 4 of the compounds above.
molecule	HPGD inh
COc1ccc(NS(=O)(=O)c2ccc3nc(COc4cccc5ccccc45)[nH]c3c2)cc1	35µM*
S=c1[nH]nc(COc2ccccc2)n1C1CCCCC1	22µM*
Cc1cccc(C(CC(=O)N2CCCC2)c2ccccc2)c1O (centres undefined)	11µM*
CC1CCCN(C(=O)c2ccc3c(c2)C(=O)N(CCC2=CCCCC2)C3=O)C1 (centres undefined)	0.89µM*

The list goes on.
molecule	HPGD inh
CCOc1ccc(NC(=O)CCN2CCN(c3ccccc3)CC2)cc1	-10%
O=C(OCC(=O)N1CCCc2ccccc21)c1cccc(S(=O)(=O)N2CCc3ccccc32)c1	-10%
Clc1ccc(C2=Nn3c(nnc3-c3cccs3)SC2)cc1	-29%
Cc1cc(C)nc(Nc2ccc(N3CCCC3)cc2)n1	-15%
Cc1ccccc1NS(=O)(=O)c1cc(C(=O)N2CCc3ccccc3C2)ccc1C	-11%
CCN(CC)S(=O)(=O)c1cccc(C(=O)N/N=C/c2c(C)nn(-c3ccccc3)c2Cl)c1	-8%
COc1cc(CCN2C(=O)c3cccc4cccc(c34)C2=O)c(S(=O)(=O)N2CCCCCC2)cc1OC	?
CCCc1cc(=O)[nH]c(-n2[nH]c3c(c2=O)CCCC3)n1	22µM*
COc1cccc(C(=O)COc2cccc(NC(=O)c3cccc([N+](=O)[O-])c3)c2)c1	?
Cc1nn(C(C)(C)C)c(OC(=O)c2ccc(Br)o2)c1Sc1ccccc1	-14%
CCCC(=O)Nc1sc2c(c1C#N)CC(C)(C)NC2(C)C	6%
CCCCCOC(=O)C1[C@H]2C(=O)N(CCCOC)C[C@]23C=C[C@H]1O3 (some centres undefined)	-11%
CCOC(=O)N1CCc2c(sc3c2C(=O)NC(c2ccccc2)N3)C1 (centres undefined)	?
N#C/C(=C\c1ccc(Cl)cc1)c1n[nH]c(Cn2cncn2)n1	?
